RN4220 kill: kills Staphylococcus aureus RN4220. S. aureus RN4220 growth, OD600, 16 h. inhibition, % (concentration not given with the values). 330,000 tested, 0.33% active. AID 1259311;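 active means z-score of -3 or lower and OD600 up to 0.18 on both plates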;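 further: plate controls were untreated cells for no effect and reference antibiotic for full effect; stock transfer was 100 nL into about 80 µL; one replicate is shown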
Sa ugtP lethal: growth inhibition of S. aureus ugtP deletion strain; growth inhibition, % (no concentration beside the values); AID 1259309; S. aureus RN4220 ugtP deletion, OD600 growth, 16 h; some inactives read as strong as hits; 330,000 tested, 0.54% active;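 active means z-score under -3 and OD600 up to 0.15 on both plates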;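 further: plate controls were untreated wells for no effect and antibiotic for full effect; wells of about 80 µL received 100 nL stock; the first replicate is given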
PrP UTR inh: suppresses PrP 5' UTR mRNA reporter expression. 340,000 tested, 0.35% active. cell-based PrP 5' UTR mRNA reporter, plate reader. inhibition, % (test concentration not listed). AID 488862;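 active means every replicate at 50% or more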;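 further: 0 = median of the neutral control wells; tested in H4 reporter cells; numbers are from one replicate; inactives centre near -14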
Mtb hypoxia rep: reduces hypoxia-regulated biosensor signal in M. tuberculosis; fluorescence inhibition, % (no concentration beside the values); M. tuberculosis hypoxia-regulated fluorescent reporter, fluorescence; 300,000 tested, 0.1% active; AID 1159583;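 active means 35 to 45% if threefold the growth effect, above 45% if 1.5-fold the growth effect; inactive means the rest, general growth blockers included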;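 further: wells of about 50 µL received 100 nL stock; 0% = vehicle wells and 100% = reference inhibitor wells; whole bacteria with a GFP reporter of the hypoxia response; strong numbers were not always called active; many hits fall short of the cut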
Autofluor counter: counter-screen for toxin protease inhibitors: compound fluorescence; compound autofluorescence counterscreen, microsphere flow cytometry; active compounds read high; fluorescence intensity (concentration not given with the values); 360,000 tested, 3.1% active;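 active means at least 3 SD above the mean of all compounds, about 16000 in these data; inconclusive means too few beads counted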;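 further: 100 nL of 1 mM stock went into each well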
BJeLR lethal: kills HRASV12-expressing BJeLR cells; 300,000 tested, 0.17% active; BJeLR (HRASV12) viability, CellTiter-Glo ATP luminescence, 48 h; reference of the scale not given here; inhibition, % (test concentration not listed);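 active means replicate mean above 50%; inconclusive means above 50% but judged a plate artefact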;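 further: 50 nL library stock added to about 25 µL; numbers are from one replicate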
Mtb hypoxia rep growth: also measured in Mtb hypoxia rep; calls as there; growth inhibition, %; measured here: M. tuberculosis growth (absorbance);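 0% = vehicle and 100% = reference antibiotic; read after six days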
An asterisk follows results filed as active; u = inconclusive; x = not tested or not shown.

cpd | SMILES | BJeLR lethal | RN4220 kill | Mtb hypoxia rep | Autofluor counter
1 | NC(=O)CC(NC(=O)Cc1ccc(Br)cc1)c1ccc(NCCN2CCOCC2)c([N+](=O)[O-])c1 (configuration not stated) | -8.3 | -9.0 | 9.5 | 2968
2 | C/C(=N\Nc1ccc(F)cc1)c1ccncc1 | 8.1 | x | x | 2149
3 | CSc1ccccc1NC(=O)COC(=O)CSc1ccc(C)cc1 | -1.1 | 1.8 | -9.5 | u
4 | CC(C)Cn1c(O)c(N=NC(=O)c2cccc(S(=O)(=O)N3CCCCC3)c2)c2ccccc21 | 3.8 | 12.8 | 2.7 | 11237
5 | Cc1ccc(S(=O)(=O)N(C)c2ccc(C(=O)NCc3cccnc3)cc2)cc1 | 6.1 | 1.4 | -0.1 | u
6 | Cc1cccc(NC(=O)c2cccc(S(=O)(=O)N(C)c3ccccc3)c2)n1 | x | 3.0 | -2.9 | 3796
7 | CSc1nc(N)nc(SCC(=O)c2ccc(C)cc2)c1C#N | 2.0 | 5.3 | x | 2154
8 | Nc1nc(NCCO)nc(N2CCCCCC2)c1[N+](=O)[O-] | 1.5 | 27.3 | -4.2 | 4093

cpd | Sa ugtP lethal | Mtb hypoxia rep growth | PrP UTR inh
1 | 3.8 | 1.0 | -13.3
2 | x | x | -26.9
3 | 0.6 | -3.9 | -1.9
4 | -7.5 | 8.8 | -10.4
5 | 1.7 | -1.5 | -5.2
6 | -15.7 | 10.4 | -16.8
7 | 0.7 | x | -61.7
8 | 18.4 | -2.0 | -10.9

Additional results follow.
cpd | SMILES | BJeLR lethal | RN4220 kill | Mtb hypoxia rep | Autofluor counter
9 | CC(Oc1cccc2c1OC(C)(C)C2)C(=O)O (configuration not stated) | 5.4 | -1.4 | x | 2678
10 | CCN(CCCNC(=O)CCn1c(=O)[nH]c2ccsc2c1=O)c1ccccc1 | -3.0 | 3.9 | 15.1 | 6244
11 | CCCCOc1ccc(N(CC(=O)NCc2ccco2)C(=O)CCC(=O)Nc2nccs2)cc1 | -3.9 | 1.6 | -0.7 | 3477
12 | CC1(C)CN=c2sc(=Cc3ccc(Cl)cc3)c(=O)n2C1 | x | 4.2 | -5.3 | x
13 | CCOc1cc(CNc2ccc3cn[nH]c3c2)ccc1OC | -12.0 | 0.5 | -1.7 | 11180
14 | CCSC1=NC(C)(C)C=C(/C=C/c2ccc(Cl)cc2Cl)N1 | -5.2 | -5.1 | x | 2821
15 | Cc1cccc(-c2nc(S(=O)(=O)c3ccccc3)c(N3CCOCC3)o2)c1 | 0.8 | x | x | 3650
16 | Cc1cc(C)c(S(=O)(=O)c2ccccc2Cl)c(=O)[nH]1 | -2.5 | 1.4 | -2.3 | 3246

cpd | Sa ugtP lethal | Mtb hypoxia rep growth | PrP UTR inh
9 | 0.3 | x | -49.1
10 | 2.8 | 8.3 | 0.8
11 | -0.2 | 9.5 | -3.3
12 | 5.9 | 19.7 | x
13 | -4.4 | 5.2 | -28.8
14 | -18.5 | x | -2.7
15 | x | x | -8.1
16 | -0.1 | 1.3 | -6.2

(next part)
cpd | SMILES | BJeLR lethal | RN4220 kill | Mtb hypoxia rep | Autofluor counter
17 | Cc1cccc(C(=O)N[C@H](C(=O)Nc2nnc(C3CC3)s2)C(C)C)c1 | -14.0 | 2.3 | 11.0 | 2004
18 | Cc1cc2occ(CC(=O)O)c2cc1C | -2.3 | 3.0 | x | 2774
19 | O=C(O)c1cc(NC(=NS(=O)(=O)c2ccc(F)cc2)c2ccccc2)ccc1O | x | -1.1 | -6.2 | x
20 | CCOC(CNC(=O)c1nnc(Cc2cc(OC)c(OC)c(OC)c2)o1)OCC | -0.5 | 4.4 | -3.3 | 5867
21 | O=C(c1ccc(F)cc1)N1CCC(C(=O)N2CCN(S(=O)(=O)c3cccc([N+](=O)[O-])c3)CC2)CC1 | 9.6 | 2.7 | 4.1 | 5945
22 | COc1ccccc1C(=O)NCCC(=O)Nc1cccnc1 | 5.2 | 1.2 | 3.7 | 4804
23 | COC(=O)Cn1nc(-c2ccccc2)c2ccccc2c1=O | 0.0 | -3.2 | -4.1 | 10666
24 | Cc1ccc2[nH]c3nc(N/N=C/c4cccc(O)c4)nnc3c2c1 | 1.7 | x | x | 4311

cpd | Sa ugtP lethal | Mtb hypoxia rep growth | PrP UTR inh
17 | 12.9 | 3.6 | -11.4
18 | -3.8 | x | -10.7
19 | 0.0 | 6.4 | x
20 | 4.4 | -7.9 | 3.8
21 | 15.7 | -6.9 | -18.4
22 | -11.7 | 1.1 | -21.4
23 | -2.4 | -3.0 | -24.6
24 | x | x | -4.2

Other records follow:
cpd | SMILES | BJeLR lethal | RN4220 kill | Mtb hypoxia rep | Autofluor counter
25 | CCOC(=O)C1CCN(Cc2ccccc2C(F)(F)F)CC1 | -4.1 | 4.1 | 0.8 | 11972
26 | CSCCC(NC(=O)C12CC3CC(CC(C3)C1)C2)C(=O)OCC(=O)c1ccccc1 (configuration not stated) | -2.9 | 2.8 | 4.9 | 1905
27 | CC(=O)Nc1c(C)ccc2nsnc12 | -1.9 | 3.1 | x | 2430
28 | C=CCNC(=O)c1onc(CSc2ccc(OC)cc2)c1C(=O)O | -6.6 | 5.3 | 6.6 | 4175
29 | O=C(N[C@@H](CO)C(=O)NCc1ccccc1)c1ccc(C(F)(F)F)cc1 | -6.5 | x | x | 3985
30 | CN(C)C=Nc1cc(=O)n(C)c(=O)n1CC1CC1 | x | 4.8 | 16.2 | x
31 | CCN1CCN(CC(=O)c2cc(OC)c(OC)c(OC)c2)CC1 | 4.9 | 2.9 | 11.0 | 4443
32 | CN1CCN(Cc2c(C(=O)N/N=C/c3cccc(Br)c3)nnn2-c2nonc2N)CC1 | 3.5 | x | x | 5786

cpd | Sa ugtP lethal | Mtb hypoxia rep growth | PrP UTR inh
25 | 3.8 | 4.2 | x
26 | -2.2 | -1.5 | -7.3
27 | 0.8 | x | -5.3
28 | 1.3 | 16.5 | -21.5
29 | x | x | -17.1
30 | 1.3 | 1.2 | x
31 | 2.0 | 8.5 | -22.9
32 | x | x | -4.7

Further records:
cpd | SMILES | BJeLR lethal | RN4220 kill | Mtb hypoxia rep | Autofluor counter
33 | Cc1cc(/C=C2\SC(N)=NC2=O)c(C)n1-c1ccccc1 | 15.2 | x | x | 2652
34 | CNc1oc(-c2ccco2)nc1C#N | 2.6 | -14.1 | 15.3 | 3245
35 | O=C(/C=C/Nc1ccccc1)c1ccc(Cl)cc1Cl | -0.2 | 2.8 | 4.4 | 4525
36 | CCc1c(C(=O)N/N=C/c2sccc2C)nnn1-c1nonc1N | 4.1 | x | x | 6084
37 | Cc1nc(NC(CC(C)C)C(=O)O)c2nc(C)oc2n1 (configuration not stated) | 2.2 | 2.1 | 1.9 | 8024
38 | CC(=O)c1c(C)c[nH]c1C | -4.8 | -0.9 | x | 2134
39 | O=C(O)c1ccc(COc2ccccc2Cl)cc1 | 3.0 | 11.7 | 10.4 | 8429
40 | CN(C)/N=C/c1ccc(OS(=O)(=O)c2ccccc2)cc1 | -3.2 | x | x | 5702

cpd | Sa ugtP lethal | Mtb hypoxia rep growth | PrP UTR inh
33 | x | x | -58.3
34 | -5.4 | 3.3 | -4.8
35 | -7.0 | 12.4 | -13.6
36 | x | x | -8.1
37 | 2.6 | -5.3 | -19.3
38 | -0.1 | x | -1.0
39 | 2.6 | 3.4 | -12.7
40 | x | x | -75.2

A different layout for 16 compounds above.
[25] CCOC(=O)C1CCN(Cc2ccccc2C(F)(F)F)CC1
[26] CSCCC(NC(=O)C12CC3CC(CC(C3)C1)C2)C(=O)OCC(=O)c1ccccc1 (configuration not stated)
[27] CC(=O)Nc1c(C)ccc2nsnc12
[28] C=CCNC(=O)c1onc(CSc2ccc(OC)cc2)c1C(=O)O
[29] O=C(N[C@@H](CO)C(=O)NCc1ccccc1)c1ccc(C(F)(F)F)cc1
[30] CN(C)C=Nc1cc(=O)n(C)c(=O)n1CC1CC1
[31] CCN1CCN(CC(=O)c2cc(OC)c(OC)c(OC)c2)CC1
[32] CN1CCN(Cc2c(C(=O)N/N=C/c3cccc(Br)c3)nnn2-c2nonc2N)CC1
Screen / compound no. | 25 | 26 | 27 | 28 | 29 | 30 | 31 | 32
BJeLR lethal | -4.1 | -2.9 | -1.9 | -6.6 | -6.5 | x | 4.9 | 3.5
RN4220 kill | 4.1 | 2.8 | 3.1 | 5.3 | x | 4.8 | 2.9 | x
Mtb hypoxia rep | 0.8 | 4.9 | x | 6.6 | x | 16.2 | 11.0 | x
Autofluor counter | 11972 | 1905 | 2430 | 4175 | 3985 | x | 4443 | 5786
Sa ugtP lethal | 3.8 | -2.2 | 0.8 | 1.3 | x | 1.3 | 2.0 | x
Mtb hypoxia rep growth | 4.2 | -1.5 | x | 16.5 | x | 1.2 | 8.5 | x
PrP UTR inh | x | -7.3 | -5.3 | -21.5 | -17.1 | x | -22.9 | -4.7

[33] Cc1cc(/C=C2\SC(N)=NC2=O)c(C)n1-c1ccccc1
[34] CNc1oc(-c2ccco2)nc1C#N
[35] O=C(/C=C/Nc1ccccc1)c1ccc(Cl)cc1Cl
[36] CCc1c(C(=O)N/N=C/c2sccc2C)nnn1-c1nonc1N
[37] Cc1nc(NC(CC(C)C)C(=O)O)c2nc(C)oc2n1 (configuration not stated)
[38] CC(=O)c1c(C)c[nH]c1C
[39] O=C(O)c1ccc(COc2ccccc2Cl)cc1
[40] CN(C)/N=C/c1ccc(OS(=O)(=O)c2ccccc2)cc1
Screen / compound no. | 33 | 34 | 35 | 36 | 37 | 38 | 39 | 40
BJeLR lethal | 15.2 | 2.6 | -0.2 | 4.1 | 2.2 | -4.8 | 3.0 | -3.2
RN4220 kill | x | -14.1 | 2.8 | x | 2.1 | -0.9 | 11.7 | x
Mtb hypoxia rep | x | 15.3 | 4.4 | x | 1.9 | x | 10.4 | x
Autofluor counter | 2652 | 3245 | 4525 | 6084 | 8024 | 2134 | 8429 | 5702
Sa ugtP lethal | x | -5.4 | -7.0 | x | 2.6 | -0.1 | 2.6 | x
Mtb hypoxia rep growth | x | 3.3 | 12.4 | x | -5.3 | x | 3.4 | x
PrP UTR inh | -58.3 | -4.8 | -13.6 | -8.1 | -19.3 | -1.0 | -12.7 | -75.2
